TRPC4 act: activators of mouse TRPC4 channel, primary screen, Fluo4 calcium, HEK293 TRPC4beta/mu-opioid cells; Short transient receptor potential channel 4 (Mus musculus), Q9QUQ5; Fluo4 calcium fluorescence; stronger effect = higher value; B-score at 10 µM; 310,000 compounds, 0.49% hits; AID 2237, 2010;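 active means B-score above 5 SD of library B-scores, and initial fluorescence ratio not above library mean plus 5 SD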;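 further: positive B-score marks a calcium rise read as TRPC4 activation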
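System: HEK293 cells stably co-expressing mouse TRPC4beta and mu-opioid receptor; Schedule: Fluo4 dye loading 45 min at room temperature, 110 s recording; Detection: Fluo4 fluorescence, kinetic; Evaluation: B-scored integrated calcium fluorescence ratio; Controls: buffer (low) and maximal DAMGO (high).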
TMEM16A inh: TMEM16A chloride channel inhibitors, primary screen, cell-based, HTS. normalized B-score (activity score, 25-100; higher = stronger inhibition) at 10 µM. Anoctamin-1 (Mus musculus), Q8BHY3. 310,000 compounds, 1.2% hits. HEK293 TMEM16A/YFP iodide influx fluorescence, ionomycin;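 active means ratio plate-corrected score three or more library SD toward inhibition, starting fluorescence score within five deviations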;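 further: score derived from kinetic fluorescence span divided by baseline fluorescence per well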
KCNK3 inh: human KCNK3 channel inhibitors, primary screen, CHO cells, FluxOR thallium flux, B-score; Potassium channel subfamily K member 3 (Homo sapiens), O14649; FluxOR fluorescence; stronger effect = lower value; B-score at 10 µM; 340,000 compounds, 0.84% hits; AID 602410, 2012;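 active means B-score under library mean minus 4 SD, starting fluorescence ratio at most library mean plus 5 SD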;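 further: more negative B-score means stronger inhibition of thallium flux through KCNK3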
HDAC3 inh: HDAC3 deacetylase inhibitors, primary screen, biochemical, fluorescence, cell-free homogeneous; Histone deacetylase 3 (Homo sapiens), O15379; recombinant HDAC3, fluorogenic peptide/trypsin coupled; inhibition, % at 8.3 µM; 320,000 compounds, 0.15% hits; AID 2718, 2010; in the data active means inhibition above about 26%, passing the limit was not always enough; inconclusive means no clear call, values can overlap the other calls
TRPC4 potent: positive allosteric modulators of TRPC4, primary screen, cell-based, mouse TRPC4beta, HEK293 mu-opioid, Fluo-4 calcium. Short transient receptor potential channel 4 (Mus musculus), Q9QUQ5. DAMGO EC20, Fluo-4 Ca2+ flux; stronger effect = higher value. B-score at 10 µM. 310,000 compounds, 0.42% hits;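 active means B-score of calcium response area above 5 SD of library B-scores, with initial fluorescence ratio within 5 SD of library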;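 further: B-score of integrated fluorescence ratio over time as area under calcium response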
ANO1 activ: TMEM16A chloride channel activators or potentiators, primary screen, cell-based, HTS. Anoctamin-1 (Mus musculus), Q8BHY3. B-score at 10 µM. 340,000 compounds, 0.3% hits. HEK293 TMEM16A/YFP-H148Q/I152L, iodide quench fluorescence; stronger effect = lower value;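 active means fluorescence-ratio B-score plate-corrected deviation score at least 3 library SD below zero, with starting fluorescence score within 5 deviations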;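 further: channel opened by trigger with iodide after compound preincubation; score built on the fluorescence ratio of max minus min over baseline; more negative score means more quench and so TMEM16A activation or potentiation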
KCNQ1 inh: inhibitors of human KCNQ1 channel, primary screen, cell-based, thallium flux, high-throughput; B-score at 10 µM; CHO-K1 KCNQ1, FluxOR thallium flux fluorescence; stronger effect = higher value; Potassium voltage-gated channel subfamily KQT member 1 (Homo sapiens), P51787; 310,000 compounds, 1.3% hits;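 active means compounds whose thallium flux B-score, printed positive for inhibition, exceeds three library SD while starting fluorescence stays within three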;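 further: channel opened by potassium depolarization with thallium stimulus after 20 min compound exposure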
Target sequence (P51787 whole entry, looked up): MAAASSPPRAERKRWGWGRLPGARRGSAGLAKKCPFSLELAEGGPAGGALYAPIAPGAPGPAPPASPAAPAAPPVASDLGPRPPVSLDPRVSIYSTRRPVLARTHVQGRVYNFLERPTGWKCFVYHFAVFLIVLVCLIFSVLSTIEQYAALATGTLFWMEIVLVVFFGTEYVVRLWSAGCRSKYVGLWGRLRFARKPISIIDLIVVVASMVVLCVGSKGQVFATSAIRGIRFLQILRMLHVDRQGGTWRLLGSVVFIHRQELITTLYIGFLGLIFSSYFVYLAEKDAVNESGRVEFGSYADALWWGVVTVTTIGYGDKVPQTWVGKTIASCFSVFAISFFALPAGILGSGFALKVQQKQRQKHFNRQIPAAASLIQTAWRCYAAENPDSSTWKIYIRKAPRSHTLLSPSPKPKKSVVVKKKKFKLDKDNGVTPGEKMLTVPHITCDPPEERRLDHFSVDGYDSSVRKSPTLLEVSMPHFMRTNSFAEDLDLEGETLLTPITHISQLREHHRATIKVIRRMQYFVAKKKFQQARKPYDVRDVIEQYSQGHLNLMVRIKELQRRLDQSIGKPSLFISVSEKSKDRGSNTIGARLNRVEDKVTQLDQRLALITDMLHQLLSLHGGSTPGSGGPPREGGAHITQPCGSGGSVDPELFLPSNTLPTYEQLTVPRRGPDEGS
An asterisk follows results filed as active; i = inactive; u = inconclusive; x = not tested or not shown; & = joins results of further samples. Some of the compounds tested (hit frequency here may not be typical).

SMILES	TRPC4 act	TMEM16A inh	KCNK3 inh	HDAC3 inh	TRPC4 potent	ANO1 activ	KCNQ1 inh
C[C@H](O)[C@H]1CC[C@H]2[C@@H]3CCC4=CC(=O)CC[C@]4(C)[C@H]3CC[C@]12C	i	i	i	6	i	i	i
COc1ccc2c(c1)[nH]c1c(C)nccc12	x	i	i	-111	x	i	x
C=CCN1CC[C@]23c4c5ccc(O)c4OC2C(=O)CC[C@@]3(O)C1C5 (stereo partly drawn)	i	i	i	9	i	i	i
C[C@]12CC[C@@H](O)C[C@@H]1CC[C@@H]1[C@@H]2CC[C@]2(C)C(=O)CC[C@@H]12	i	i	i	1	i	i	i
C[C@]12CCC3[C@@H](CC[C@H]4C[C@@H](O)CC[C@]34C)C1CCC2=O (stereo partly drawn)	i	i	i	3	i	i	i
CC(CN(C)C1CCN(C)CC1)c1ccccc1 (stereo not drawn)	i	i	i	4	i	i	i
CN1CCCC(C(=O)c2ccc(Cl)cc2)C1 (stereo not drawn)	126*	i	i	u	i	i	i
Cc1nc2cc(C(F)(F)F)ccc2n1C1CCN(Cc2nnnn2Cc2ccc3c(c2)OCO3)CC1	i	i	i	3	i	i	i
N#Cc1c(N2CCNCC2)nc(-c2ccco2)c2c1CCCC2	i	i	i	-3	i	i	i
C=CCN1CC[C@]23c4c5ccc(O)c4O[C@H]2C(=O)CC[C@@]3(O)[C@H]1C5	i	i	i	4&-4	i	i	i

One compound at a time, from the list above.
`CC(CN(C)C1CCN(C)CC1)c1ccccc1` (stereo not drawn) reads TRPC4 act: i; TMEM16A inh: i; KCNK3 inh: i; HDAC3 inh: 4; TRPC4 potent: i; ANO1 activ: i; KCNQ1 inh: i
`C=CCN1CC[C@]23c4c5ccc(O)c4OC2C(=O)CC[C@@]3(O)C1C5` (stereo partly drawn) reads TRPC4 act: i; TMEM16A inh: i; KCNK3 inh: i; HDAC3 inh: 9; TRPC4 potent: i; ANO1 activ: i; KCNQ1 inh: i
`N#Cc1c(N2CCNCC2)nc(-c2ccco2)c2c1CCCC2` reads TRPC4 act: i; TMEM16A inh: i; KCNK3 inh: i; HDAC3 inh: -3; TRPC4 potent: i; ANO1 activ: i; KCNQ1 inh: i

Taken from the listing, 3 compounds:
SMILES	TRPC4 act	TMEM16A inh	KCNK3 inh	HDAC3 inh	TRPC4 potent	ANO1 activ	KCNQ1 inh
C[C@H](O)[C@H]1CC[C@H]2[C@@H]3CCC4=CC(=O)CC[C@]4(C)[C@H]3CC[C@]12C	i	i	i	6	i	i	i
COc1ccc2c(c1)[nH]c1c(C)nccc12	x	i	i	-111	x	i	x
C=CCN1CC[C@]23c4c5ccc(O)c4OC2C(=O)CC[C@@]3(O)C1C5 (stereo partly drawn)	i	i	i	9	i	i	i

Continuation.
SMILES	TRPC4 act	TMEM16A inh	KCNK3 inh	HDAC3 inh	TRPC4 potent	ANO1 activ	KCNQ1 inh
CC(=O)C1CCC2C3CCC4CC(O)CCC4(C)C3C(=O)CC12C (stereo not drawn)	x	x	i	x	x	i	x
COc1cc(CN=C(C)c2c(O)n(C)c(=O)n(C)c2=O)cc(OC)c1	i	i	i	2	i	i	i
Cc1ccc(CN2CCN(Cc3ccccc3)CC2)cc1	i	i	i	2	i	i	i
C[C@]12CCC3C(CC[C@H]4C[C@@H](O)CC[C@]34C)C1CCC2=O (stereo partly drawn)	x	x	i	2	x	i	x
CC(C)Nc1ccc(Nc2ccccc2)cc1	x	i	i	-1	x	i	x
C[C@]12CC[C@H](O)C[C@@H]1CC[C@@H]1[C@@H]2CC[C@]2(C)C(=O)CC[C@@H]12	i	i	i	4	i	i	i
O=c1[nH]c2ccccc2n1C1CCN(CCCC(c2ccc(F)cc2)c2ccc(F)cc2)CC1	i	i	i	8	i	i	i

Assay outcomes from PubChem BioAssay.
